fixLJ activator: B. multivorans fixK reporter activation | B. multivorans fixK-promoter GFP reporter, 18 h; active compounds read high | z-score (test concentration not listed) | 0.3% of 29,000 active;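 active means replicate mean overnight rise in green fluorescent reporter signal, 3 or more SD over negative controls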;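 further: score is relative to vehicle wells of the plate; 300 nL library stock went into each well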
Starred values were filed as active, the others as inactive; & = joins results of further samples. The list is partial; rates above refer to the full screens.

SMILES	fixLJ activator
CC1=Nc2cc(C(=O)N3CCCCC3)ccc2Sc2ccc(C)cc21	1.3
Cc1c(CNC2CCCCCC2)c(C(=O)O)c(C)n1Cc1cccc(Cl)c1	-0.15
Cc1cccc(-c2c3c(=O)n(C)c(=O)n(C)c3c3cnc4ccccc4n23)c1	-0.12
Cc1cc(C(=O)O)nc(-c2ccccc2C(=O)N(C(C)C)C(C)C)n1	-0.7
COc1cc2c(cc1OC)C1(CCN(C(=O)c3c(O)cccc3O)CC1)OCC2	-0.09
COc1ccc(NC(=O)Cn2nc(C(F)(F)F)c3c2CCCC3)cc1OC	-0.58
CCn1c(=O)cc(OCC(=O)NCc2ccccc2Cl)c2ccccc21	-3.5
COc1ccccc1OCc1cc(C(=O)N2CCCCCC2CO)n[nH]1 (stereo unspecified)	-0.5
COc1ccc(S(=O)(=O)N(Cc2nc(-c3cccc(C)c3)no2)C2CCCCC2)cc1	-1.3
COc1ccc(OCC2CCCN(C(=O)C3CCN(C(C)=O)CC3)C2)cc1 (stereo unspecified)	2.1
CCn1c(=O)c2cc(C(=O)NC3CCCCCC3)sc2c2ccccc21	-1.1
COc1ccc(-c2cc(-c3ccccc3)nc3c2COc2ccccc2-3)cc1	0.53
Cc1n[nH]c(C)c1S(=O)(=O)N(CC(=O)NCc1ccccc1Cl)c1ccc(C(C)C)cc1	-1.3
CC(C)NC(=O)c1cc2c(Cl)nc3ccccc3c2s1	-1.7
COc1ccc(Cn2c(SCc3ccc(C(=O)NCc4ccc(C)cc4)cc3)nc3cccnc32)cc1	-0.31
CC1CCc2c(sc3nnn(Cc4ccccc4)c(=O)c23)C1 (stereo unspecified)	-1.1
COc1cc2c(=O)c(S(=O)(=O)c3ccccc3)cn(CC(=O)Nc3ccccc3C)c2cc1OC	-3.3
Cc1ccc(CNCc2ccccc2Cl)s1	0.18
Cc1ccc(-c2c(C)n3c4c(=O)n(C)c(=O)n(C)c4nc3n2-c2cccc(O)c2)cc1	-1.1
CCSc1nc2sc3c(c2c(=O)n1-c1ccc(C)cc1)CCCC3	1.6
Cc1ccc(OCCCn2c(C3CC(=O)N(c4cccc(Cl)c4)C3)nc3ccccc32)c(C)c1 (stereo unspecified)	-1.7
CCCCc1ccc(C(=O)Nc2ccc3nc(N(CC)CC)cc(C)c3c2)cc1	0.64
Cc1ccc(CS(=O)(=O)c2ncc(Cl)c(C(=O)Nc3nc4ccc(F)cc4s3)n2)cc1	0.13
COc1ccc(C(=O)c2cn(Cc3ccccc3)c3ccccc3c2=O)cc1OC	0.62
CCc1ccc(CNC(=O)c2ccc3c(c2)N=C(C)c2cc(C)ccc2S3)cc1	0.19

An excerpt from above in order of count of non-hydrogen atoms, largest number first:
SMILES	fixLJ activator
COc1ccc(Cn2c(SCc3ccc(C(=O)NCc4ccc(C)cc4)cc3)nc3cccnc32)cc1	-0.31
COc1cc2c(=O)c(S(=O)(=O)c3ccccc3)cn(CC(=O)Nc3ccccc3C)c2cc1OC	-3.3
Cc1ccc(OCCCn2c(C3CC(=O)N(c4cccc(Cl)c4)C3)nc3ccccc32)c(C)c1 (stereo unspecified)	-1.7
Cc1n[nH]c(C)c1S(=O)(=O)N(CC(=O)NCc1ccccc1Cl)c1ccc(C(C)C)cc1	-1.3
Cc1ccc(CS(=O)(=O)c2ncc(Cl)c(C(=O)Nc3nc4ccc(F)cc4s3)n2)cc1	0.13
COc1ccc(C(=O)c2cn(Cc3ccccc3)c3ccccc3c2=O)cc1OC	0.62
CCCCc1ccc(C(=O)Nc2ccc3nc(N(CC)CC)cc(C)c3c2)cc1	0.64
Cc1cccc(-c2c3c(=O)n(C)c(=O)n(C)c3c3cnc4ccccc4n23)c1	-0.12
Cc1c(CNC2CCCCCC2)c(C(=O)O)c(C)n1Cc1cccc(Cl)c1	-0.15
COc1ccccc1OCc1cc(C(=O)N2CCCCCC2CO)n[nH]1 (stereo unspecified)	-0.5
CC1=Nc2cc(C(=O)N3CCCCC3)ccc2Sc2ccc(C)cc21	1.3
CC1CCc2c(sc3nnn(Cc4ccccc4)c(=O)c23)C1 (stereo unspecified)	-1.1
CC(C)NC(=O)c1cc2c(Cl)nc3ccccc3c2s1	-1.7
Cc1ccc(CNCc2ccccc2Cl)s1	0.18

Going on with the list:
SMILES	fixLJ activator
COC(=O)c1ccccc1NC(=O)CN1C(=O)COc2ccccc21	-2.4
Cc1cccc(NC(=O)CN2C(=O)c3cccc4cccc2c34)c1C	-0.44
COc1ccc(NC(=O)CN2CCN(Cc3ccccc3Cl)S2(=O)=O)cc1Cl	-2.4
COc1ccccc1CNC(=O)Cn1ncc2c(C)n(Cc3ccccc3Cl)c(C)c2c1=O	-2.6
CCOc1ccc(NC(=O)Cn2c(=O)n(Cc3ccc(C(=O)NCc4ccc5c(c4)OCO5)cc3)c(=O)c3ccccc32)cc1	-0.67
CCc1ccc(N(CC)C(=O)Cn2c(=O)oc3ccccc32)cc1	0.68
COc1cccc(C(=O)c2sc(Nc3ccc(C)cc3C)c(S(=O)(=O)c3ccccc3)c2N)c1	-0.9
Cc1cccc(-n2c3nc(=O)n(C)c(=O)c-3cc3c(Cl)cccc32)c1C	-1.3
CN(C)C(=O)CC(O)c1cc2n(n1)CCN(Cc1ccc(Cl)cc1F)C2 (stereo unspecified)	-1.3
O=C1OCCN1/N=C/c1ccc([N+](=O)[O-])o1	-0.28
Cc1ccccc1CSc1cn(CCNC(=O)c2cccs2)c2ccccc12	1.3
Cc1ccc2[nH]c(=O)c(CN3CCCN(c4ccncc4)CC3)cc2c1	-0.76
Cc1cc(NC(=O)CCS(=O)(=O)c2cc(Br)cc3c2N(C(=O)C2CC2)CC3)ccc1Br	-1.3
O=C(CSc1ncc(S(=O)(=O)c2ccc(Br)cc2)c(=O)[nH]1)NCc1ccc(Cl)cc1	0.05
CCOc1ccc(-n2c(=O)c3c4c(sc3n(CC(=O)NC(C)CC)c2=O)CCC4)cc1 (stereo unspecified)	1.3
CC(C)(C)c1ccc(Cn2c(Cc3ccccc3)nc3ccccc32)cc1	1.5
NCCc1ccc(CN2CCC3(CCC(=O)N(CCc4cnc[nH]4)C3)CC2)cc1	1.1
COc1cccc(Oc2ccc(NC(=O)c3cnc(C(C)=O)s3)cn2)c1	-0.68
C/C=C/c1ccc(OC)cc1	-0.41&-0.81
CCC(=O)N1CCc2cc(Br)cc(S(=O)(=O)N3CCC(C(=O)Nc4ccccc4CC)CC3)c21	-0.95
COc1cc2c(cc1OC)n(CC(=O)Nc1ccc(C)cc1C)c(=O)n1nc(-c3ccccc3)nc21	0.49
Cc1ccc(Cl)cc1NC(=O)Cn1nnc2sc3c(c2c1=O)CCC(C(C)(C)C)C3 (stereo unspecified)	-0.37
O=C(Cn1nc(Cc2ccncc2)c2ccccc2c1=O)Nc1cccc(C(F)(F)F)c1	-0.55
NC1C2CCOC2C1NS(=O)(=O)c1cc(Cl)c(Cl)s1 (stereo unspecified)	-0.03
Cc1ccc(CCC(=O)NC2CCOCC2Oc2ccc(CO)cc2)cc1 (stereo unspecified)	0.88

The list goes on.
SMILES	fixLJ activator
COc1ccc(CCNC(=O)CCc2c(C)nc3cc(-c4ccccc4OC)nn3c2C)c(OC)c1	-1.3
COc1cccc(-c2nc(S(=O)(=O)c3ccc(C)cc3)c(N3CCCCCC3)o2)c1	-0.48
COC(=O)C1=C(C)NC(=O)C1(NC(=O)c1ccccc1C)C(F)(F)F (stereo unspecified)	-0.12
Cc1nonc1N1CCN(C(=O)C2(c3ccc(Cl)cc3)CCC2)CC1	0.77
COc1ccc(C2c3cc(OC)c(OC)cc3CC(=O)N2c2ccc(C)c(F)c2)cc1 (stereo unspecified)	-1.5
Cc1c(C(c2ccc(Br)cc2)c2c(O)c3ccccc3oc2=O)c(=O)n(-c2ccccc2)n1C (stereo unspecified)	-2.1
CC(C)(C)NC(=O)CNC(=O)c1csc2nc(-c3cccc(F)c3)cn12	0.5
COc1ccc(NC(=O)CCc2nnc3n(Cc4ccc(C)cc4)c(=O)c4ccccc4n23)cc1	-1.6
COc1cc(C(=O)Nc2nc3nc(-c4ccccc4)cc(=O)n3[nH]2)cc(OC)c1OC	-2.1
CCOc1ccc(CCNC(=O)c2cc3c(-c4ccccc4F)nn(C)c3s2)cc1	-1.8
CC(=O)NC1CCN(c2cc(C3CCOC3)nc(N3CC(O)C3)n2)CC1 (stereo unspecified)	-1.5
O=C(C1CCCCn2nnnc21)N1CCOc2ccc(Cl)cc2C1 (stereo unspecified)	-1.5
Cc1ccccc1C1C(C(=O)N2CCN(C(C)C)CC2)OCC(=O)N1C (stereo unspecified)	-0.4
CC(CO)CN(Cc1ccccc1)C(=O)c1cnc2ccccn12 (stereo unspecified)	-0.64
CN(CCO)Cc1nnc(C2CCN(C(=O)C(C)(C)C)CC2)n1C	0.57
CC(C)c1cc(C(=O)N2CCN(CC3CC3)C3CS(=O)(=O)CC32)n[nH]1 (stereo unspecified)	-0.11
COCCN1Cc2cccc(C(=O)Nc3ccc(C(=O)OC)cc3)c2C1=O	-1.3
CCc1cc(N2CCCN(C(=O)COC)CC2)n2nc(C)c(C)c2n1	0.53
Cc1cc(C(=O)NC2CCCN(C(=O)c3ccco3)C2)c(C)n1-c1ccccc1 (stereo unspecified)	-2.1
Cc1ccc(C)c(N(C)C(=O)c2cc3c(s2)-c2ccccc2OC3)c1	1.6
CCN(c1ccccc1)S(=O)(=O)c1ccc(NC(=O)c2cc(=O)c3cc(C)c(C)cc3o2)cc1	-1.9
O=C(c1cc(CN2CCOCC2)on1)N1CCN2CCCC2C1 (stereo unspecified)	-1.1
Cc1nc2nc(NC(=O)C(C)C)[nH]n2c(=O)c1Cc1ccccc1	0.06
Cc1cccnc1CNC(=O)N1CCN(C2CN3CCC2CC3)CC1 (stereo unspecified)	0.2
CCc1ccc(C(=O)c2cn(CC(=O)Nc3cccc(OC)c3)c3ccc(OC)cc3c2=O)cc1	0.28

Remaining list, next part:
SMILES	fixLJ activator
CCOc1ccc(/C=C/c2nc(C#N)c(Nc3ccc(OCC)cc3)o2)cc1	-1.6
COc1ccc(NC(=O)C(c2ccc(C)cc2)N(C)C(=O)/C=C\c2ccc3c(c2)OCO3)cc1 (stereo unspecified)	1.7
COc1cc(Cl)c(C)cc1NC(=O)Cn1c(C)c2cnn(-c3ccccc3)c(=O)c2c1C	-1.7
Cc1ccc(OCc2nc3ccccc3n2Cc2ccccc2Cl)cc1	2.5
CCCCC(=O)N1c2ccccc2C(C)(c2ccccc2)CC1(C)C (stereo unspecified)	0.11
CCCn1c(CCC(=O)Nc2cccc(C)c2C)nc2cccnc21	-0.8
C#CCSc1nc2sc3c(c2c(=O)n1-c1cccc(OC)c1)CCN(C(C)=O)C3	-2.4
CCc1nnc2c(Nc3ccccc3Br)nc3ccccc3n12	-0.58
Cc1ccc(Cl)cc1NC(=O)C1CCN(S(=O)(=O)c2cccc3nonc23)CC1	-2.1
CCOc1ccc(/C=C/c2nc(C#N)c(N3CCC(C)CC3)o2)cc1	3
COc1cccc(NC(=O)C2CCCN(S(=O)(=O)c3cccc4nonc34)C2)c1 (stereo unspecified)	0.56
COc1cc(N2CCC(N3CCCC(C(=O)N4CCOCC4)C3)CC2)ncn1 (stereo unspecified)	-0.45
CN(C)C(=O)N1CCn2nc(CNC(=O)c3ccc(N(C)C)cc3)cc2C1	-1.9
CCOC(=O)c1c(NC(=O)CCCOc2ccc(Cl)cc2)sc2c1CCC2	0.09
Cc1cc(=O)[nH]c(SC(C)C(=O)N2CCN(c3ncn[nH]3)CC2)n1 (stereo unspecified)	0.35
CCc1ccc(CNC(=O)Cn2nc(C)n3c(cc4cc(C)ccc43)c2=O)cc1	-0.31
CCc1cccc(C)c1NC(=O)Cn1cc2c(n1)CCCC2	-1.6
NC1CC(c2nnc(COc3ccc(F)cc3F)n2C2CC2)C1 (stereo unspecified)	-0.3
Cc1cc(C(F)(F)F)n(-c2nc(C(=O)N3CCSCC3)cs2)n1	0.51
CCOC(=O)OC(C)OC(=O)C1N2C(=O)C(NC(=O)[C@H](N)c3ccccc3)C2SC1(C)C (stereo partly specified)	-0.27
COc1ccc(-n2nc(C(=O)N(C)c3cc(Cl)ccc3OC)c3c4ccccc4n(C)c3c2=O)cc1	-1
Cc1ccc(C)c(CN2C(=O)c3ccccc3S(=O)(=O)c3ccc(C(=O)N(C)C4CCCCC4)cc32)c1	-1.5
CCc1ccc(-c2nn(-c3ccc(OC)cc3)c3c2cnc2ccc(OC)cc23)cc1	1.1
COc1cc(NC(=O)CCN2CCN(c3ccccc3)CC2)cc(OC)c1	-0.46
CCCSc1ccc2nc(NC(=O)OC)[nH]c2c1	-1.6&0.29

Further structures:
SMILES	fixLJ activator
CCOC(=O)N1CCN(C(=O)CN(c2ccccc2F)S(=O)(=O)c2ccc(C)cc2)CC1	-0.6
CCOCCn1c(=O)n(CCCN(C)C)c2cc(C(=O)O)cnc21	-0.85
O=C(Nc1ccc2oc(-c3cccnc3)nc2c1)c1ccc(-c2cccc(OC(F)(F)F)c2)o1	-0.59
CSc1ncc(Cl)c(C(=O)N(Cc2ccc(N(C)C)cc2)Cc2ccco2)n1	-0.99
CCOc1cc(C2c3c(-c4ccccc4O)n[nH]c3C(=O)N2CCc2ccccc2)ccc1O (stereo unspecified)	-3.5
COc1ccccc1N1CCN(c2nc3c(S(=O)(=O)c4ccc(C)c(C)c4)nnn3c3ccc(Cl)cc23)CC1	-0.3
CCCOc1ccccc1C(=O)N1CC(C(=O)O)C2(CCOCC2)C1 (stereo unspecified)	-0.28
CCCOc1ccc(C2CC(=O)Nc3c2c(=O)n(C)c(=O)n3C)cc1OC (stereo unspecified)	-0.2
CCc1cccc(CC)c1NC(=O)CN1C(=O)C(=O)c2ccccc21	-2.9
Cc1cc(OC(C)C(=O)Nc2sc3c(c2C(N)=O)CCCC3)ccc1Cl (stereo unspecified)	-1.3
CC(=O)c1cc(CN2CCn3nc(CNC(=O)C4CCC4)cc3C2)cs1	-0.14
COc1ccc(C2(C(=O)NC3COCC3Cc3ccncc3)CCCC2)cc1 (stereo unspecified)	0.23
COC(=O)c1cc2oc3ccccc3c2n1Cc1cc(C)ccc1C	0.04
Cn1c(=O)c2c(-c3ccccc3Cl)n(-c3cc(Cl)ccc3O)cc2n(C)c1=O	-2
COc1ccc(CNCc2ccc(C(=O)O)s2)cc1	-0.85
COc1cccc(-n2c(=O)c3c4c(sc3n(Cc3ccc(F)cc3Cl)c2=O)CCCC4)c1	1.7
Cc1ccc(NC(=O)Cn2c(=O)n(-c3ccccc3)c(=O)c3c4c(sc32)CCCC4)cc1	-0.86

High-throughput results deposited in PubChem BioAssay by ICCB-Longwood Screening Facility, Harvard Medical School.
